gsp antag: gsp mutant antagonism; gsp-mutant cells, cAMP HTRF, 30 min; control for the full effect not named in the record; Potency, µM (highest dose often 76.9 µM), without a hit: at the top dose activity change, negative = inhibition, most hits filed as inhibitors; 340,000 compounds, 0.4% hits; AID 624288; active = falling curve of any shape with a large fitted effect; inconclusive = falling curve, mostly with a smaller effect; inactive = flat or rising curve; cell line not stated here;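 note: intracellular cAMP measured with PDE inhibitor Ro 20-1724 present during compound exposure; potency is the fitted concentration of half-maximal effect; % is set by controls: 0 for no effect and ±100 for the full control effect; nearly all actives have a fitted effect of over 65% in size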
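Measurement of cellular cAMP by homogeneous time-resolved fluorescence following a 30 min compound exposure at 37C. The PDE inhibitor […] was present throughout; the assay buffer was DPBS with 0.05% BSA and 0.005% Tween 20.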
TRPV1 potentiator: potentiators of human vanilloid receptor 1 (TRPV1). Q8NER1. TRPV1-expressing cells, Fluo-8 calcium influx, capsaicin EC20 potentiation; host cell line not named in the record; control for the full effect not named in the record. potentiation, % at 8.33 µM. 320,000 compounds, 0.02% hits. AID 540277; active means potentiation above 80%; inconclusive means 30% to 80%; inactive means below 30%; note: 0% is about no effect
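TRPV1-expressing cells were cultured overnight at 35.5C and loaded with Fluo-8 calcium dye for 40 to 90 min at room temperature. After a 10 s baseline, compound was added and calcium influx was read kinetically for 3 min (ex 480/em 520 nm).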
D2 potentiator: human D2 receptor positive allosteric modulation; AID 624464; potentiation, % (test concentration not listed); P14416; 360,000 compounds, 0.23% hits; DiscoveRx D2 beta-arrestin cells, luminescence, 90 min; 100% = 57 uM dopamine signal; active = potentiation of 50% or more; inconclusive = 30% to 50%; inactive = 30% or less;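 note: compound concentration not given in the record; tested on top of an EC20 dose of dopamine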
Target sequence (P14416 whole entry, looked up): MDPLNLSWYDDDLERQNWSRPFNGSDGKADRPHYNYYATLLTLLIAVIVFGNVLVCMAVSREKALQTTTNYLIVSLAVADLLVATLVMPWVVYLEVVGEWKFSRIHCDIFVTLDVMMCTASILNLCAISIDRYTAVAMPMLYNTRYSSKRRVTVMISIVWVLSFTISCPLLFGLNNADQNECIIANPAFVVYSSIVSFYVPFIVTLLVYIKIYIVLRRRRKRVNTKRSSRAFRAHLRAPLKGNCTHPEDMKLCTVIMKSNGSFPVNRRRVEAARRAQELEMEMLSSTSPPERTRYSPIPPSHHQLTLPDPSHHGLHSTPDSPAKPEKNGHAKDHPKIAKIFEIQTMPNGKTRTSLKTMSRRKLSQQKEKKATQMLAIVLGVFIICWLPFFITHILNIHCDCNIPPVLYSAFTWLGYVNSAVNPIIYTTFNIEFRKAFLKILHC
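PathHunter D2 cells, attached overnight at 37 deg C, received compound in DMSO plus dopamine at EC20 (50 nM final) for 90 min at 37 deg C. Beta-arrestin recruitment was read as luminescence after 1 h with detection reagent at ambient temperature.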
Menin MLL FP FL: inhibitors of human menin-MLL interaction, wild-type MLL peptide; Fluorescence polarization, fluorescein-MLL peptide displacement from menin; FP activity change, % at 61.4 µM; 290,000 tested, under 10 active; AID 1766; inconclusive = falling polarisation curve, or a change in total fluorescence; inactive = total fluorescence flat and polarisation flat or rising; no compound was filed as active; the % refers to the polarisation; negative = inhibition;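 note: % of control where 0% means no effect; inhibitors lower the polarisation; unlabelled MLL peptide was the positive control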
ClpP mod: qHTS Assay for Activators of ClpP | ATP-dependent Clp protease proteolytic subunit (Bacillus subtilis (strain 168)), P80244 | purified B. subtilis ClpP, FRET peptide cleavage, 20 min | Potency, µM (top dose mostly 57.5 µM), inactives show at the highest dose activity change, negative = active | 340,000 compounds, 1.9% hits | AID 651965, 2013; active = well fitted falling curve with a large enough effect; inconclusive = small, poorly fitted or top-dose-only effect; inactive = no such curve, though single readings can be large or run the other way; note: potency is the fitted concentration of half-maximal effect; the source files actives as falling curves though it sought activators and does not explain the sign; nearly all actives have a fitted effect of over 65% in size; many hits overshoot -100%
Target sequence (P80244 whole entry, looked up): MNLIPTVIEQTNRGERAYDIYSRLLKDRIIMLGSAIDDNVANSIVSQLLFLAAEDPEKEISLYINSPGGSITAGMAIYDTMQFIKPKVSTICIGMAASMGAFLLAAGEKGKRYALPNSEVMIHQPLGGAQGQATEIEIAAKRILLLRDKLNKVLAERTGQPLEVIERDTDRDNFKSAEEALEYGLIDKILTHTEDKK
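FRET quenching reversal measured ClpP activation: 10 microg/mL B. subtilis ClpP at pH 8 with the FRET-FV decapeptide, read at 430 nm after 320 nm excitation. The 20-min minus 0-min signal was scaled between DMSO/no-enzyme wells and ADEP (5.8 microM final).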
Sfp PPTase inh: inhibitors of Bacillus subtilis Sfp phosphopantetheinyl transferase. Q9F4F7. Biochemical Sfp PPTase activity, qHTS. Potency, µM, inactives show max response, negative = inhibition, hits mostly inhibitors. 310,000 compounds, 3.5% hits; active = well fitted inhibition curve with a large enough effect; inconclusive = small, poorly fitted or top-dose-only effect, or another doubt; inactive = no such curve, though single readings can be large or run the other way;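 note: the enzyme is Sfp with the accession as filed and its product quenches rhodamine fluorescence; potency is the fitted concentration of half-maximal effect; 0% = enzyme reaction without inhibitor and -100% = no enzyme wells; top concentration of the series not given in the record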
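Sfp 15 nM + cpd, 15 min RT; start w/ rhodamine-CoA 5 uM, BHQ-2-YbbR 12.5 uM (final); 50 mM Hepes pH 7.6, 10 mM MgCl2, 0.01% NP-40, 0.01% BSA; read 525/598 nm at 0 and 30 min.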
gsp agonist: activates gsp, the McCune-Albright syndrome mutation; gsp mutant cells, cAMP HTRF, 30 min; control for the full effect not named in the record; Potency, µM (doses to about 76.9 µM), for the others: at the highest dose activation (cAMP increase), actives largely listed as activators; 340,000 compounds, 0.13% hits; AID 624287; active = well fitted activation curve with a large enough effect; inconclusive = small, poorly fitted or top-dose-only effect, or another doubt; inactive = no such curve, though single readings can be large or run the other way; cell line not stated here;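 note: phosphodiesterase inhibitor Ro 20-1724 added with compounds to block cAMP breakdown; potency is the fitted concentration of half-maximal effect; nearly all actives have a fitted effect of over 60% in size; about a fifth of the inactives were tested at one dose only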
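Cells in DMEM/10% FBS with G418 were pretreated with compounds in DMSO plus […] (300 uM stock) for 30 min at 37C. cAMP was measured by HTRF (cAMP-d2 plus anti-cAMP antibody-K) after 30 min at room temperature.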
* hit, by the source's call; & = joins results of further samples; [ ] = dose if it differs, or a comment.

What do the screens show for `COCCCn1c(SCC(=O)Nc2cccc(C)n2)nnc1-c1ccco1`?
gsp antag: -10%; TRPV1 potentiator: 10; D2 potentiator: 0; Menin MLL FP FL: 4.4; ClpP mod: -2.3%; Sfp PPTase inh: 7%; gsp agonist: 7%

What do the screens show for `CC(C)(C)NNC(=S)Nc1cccc(C(F)(F)F)c1`?
gsp antag: 7%; TRPV1 potentiator: -7; D2 potentiator: -12; Menin MLL FP FL: -5.5; Sfp PPTase inh: 13%; gsp agonist: 8%[15.4 µM]

Results for CCc1sc(C(=O)NCc2cc(C)n(C)n2)cc1Br ?
gsp antag: -11%; TRPV1 potentiator: -9; D2 potentiator: 1; Menin MLL FP FL: -1.1; ClpP mod: -1.7%; Sfp PPTase inh: -2%; gsp agonist: -2%

How did CN(C(=O)CN1C(=O)/C(=C/c2ccccc2Cl)SC1=S)C1CCS(=O)(=O)C1 (stereo not given) do in these assays?
gsp antag: -6%; TRPV1 potentiator: -4; D2 potentiator: 0; Menin MLL FP FL: -1.2; ClpP mod: -0.7%; Sfp PPTase inh: -15%; gsp agonist: -13%

Results for COC(=O)[C@@]1(Cc2ccc(OC)cc2)[C@@H]2C(=CC(=O)[C@H]2CC(=O)C(=O)N2CCCC2)CN1C(=O)c1ccccc1 ?
gsp antag: 3%; TRPV1 potentiator: -4; D2 potentiator: 6; Menin MLL FP FL: 4.2&1.3; ClpP mod: 0.7%; Sfp PPTase inh: 2%&-5%

How did CCOC(=O)CC(=O)CSc1nc2ccc(C)cc2cc1C#N do in these assays?
gsp antag: -6%; TRPV1 potentiator: -1; D2 potentiator: 1; Menin MLL FP FL: inconclusive; ClpP mod: 3.1%; Sfp PPTase inh: 2%; gsp agonist: 17%

How did C=CCN(CC=C)S(=O)(=O)c1ccc2nc(NC(=O)C3CCCO3)sc2c1 (stereo not given) do in these assays?
gsp antag: 1%; TRPV1 potentiator: -2; D2 potentiator: -12; Menin MLL FP FL: 3.3; ClpP mod: -2.8%; Sfp PPTase inh: 7%; gsp agonist: -1%

Results for O=S(=O)(c1ccc(Cl)cc1)c1cc(O)ccc1O ?
gsp antag: -5%; TRPV1 potentiator: 18; D2 potentiator: 14; Menin MLL FP FL: -2.3; ClpP mod: -0.8%; Sfp PPTase inh: -17%; gsp agonist: -22%

How did C=C[C@@]1(C)CCC(/C(C)=C/C=C/C(C)(C)O)C[C@@H]1C(=C)C (stereo not given in full) do in these assays?
gsp antag: 2%; D2 potentiator: 17; ClpP mod: 1.3%

How did CC1=CC2=NC(=O)CC(C)(C(=O)N(CC(=O)NC(C)C)C3CCCC3)N2C=C1 (stereo not given) do in these assays?
TRPV1 potentiator: -5; Menin MLL FP FL: -2.3; Sfp PPTase inh: 8%

How did COc1ccccc1NS(=O)(=O)c1cc(NC(=O)C2CCC2)ccc1N1CCCCC1 do in these assays?
gsp antag: -1%; TRPV1 potentiator: 0; D2 potentiator: -11; Menin MLL FP FL: 14; ClpP mod: -0.6%; Sfp PPTase inh: 8.9µM*; gsp agonist: -15%

What do the screens show for `S=C(Nc1ccc(-c2nc3ccccc3[nH]2)cc1)Nc1cccnc1`?
gsp antag: -2%; TRPV1 potentiator: 9; D2 potentiator: -27; Menin MLL FP FL: 0.6; Sfp PPTase inh: -21%; gsp agonist: -12%[15.4 µM]

What do the screens show for `Clc1ccc(-n2nnc(-c3cccnc3Cl)n2)cn1`?
gsp antag: 5%; TRPV1 potentiator: -1; D2 potentiator: -8; Menin MLL FP FL: 0.5; ClpP mod: -20%; Sfp PPTase inh: 5%; gsp agonist: 10%

What do the screens show for `O=C1CCC2CCCCC2(O)O1` (stereo not given)?
gsp antag: -2%; TRPV1 potentiator: 16; D2 potentiator: -21; Menin MLL FP FL: 1.4; ClpP mod: 0.9%; Sfp PPTase inh: 12%; gsp agonist: -1%

Results for CC(Sc1nc(-c2ccccc2)cs1)C(=O)Nc1ccc(Cl)cn1 (stereo not given) ?
gsp antag: -11%; TRPV1 potentiator: 1; D2 potentiator: -29; Menin MLL FP FL: 0.0; ClpP mod: 1.5%; Sfp PPTase inh: -2%; gsp agonist: -7%

Results for CCN(C(=O)C12CC3CC(CC(C3)C1)C2)C1CCS(=O)(=O)C1 (stereo not given) ?
gsp antag: 0%; TRPV1 potentiator: -18; D2 potentiator: -14; ClpP mod: -34%; gsp agonist: 1%[15.4 µM]

What do the screens show for `O=C(/C=C\c1ccc2c(c1)OCO2)CC1(O)C(=O)Nc2ccccc21` (stereo not given)?
gsp antag: -4%; TRPV1 potentiator: 24; D2 potentiator: -4; Menin MLL FP FL: 4.1; Sfp PPTase inh: 5%; gsp agonist: 11%[15.4 µM]

Results for Cc1cc(-c2n[nH]c(=S)n2Cc2ccccc2)cs1 ?
gsp antag: 1%; TRPV1 potentiator: 22; D2 potentiator: -15; Menin MLL FP FL: -1.1; ClpP mod: -6.4%; Sfp PPTase inh: -3%; gsp agonist: -15%

What do the screens show for `O=C(NCc1ccc(F)cc1)C1CC(=O)N(CCc2ccccc2)C1` (stereo not given)?
gsp antag: 2%; TRPV1 potentiator: -2; D2 potentiator: 5; Menin MLL FP FL: 0.0; ClpP mod: -0.1%; Sfp PPTase inh: 14%; gsp agonist: -40%[inhibitor]

Results for CCOC(=O)NC(Nc1sc2c(c1C(N)=O)CCCC2)(C(=O)OCC)C(F)(F)F (stereo not given) ?
gsp antag: -11%; TRPV1 potentiator: 3; D2 potentiator: 12; Menin MLL FP FL: 2.5; ClpP mod: -11%; Sfp PPTase inh: 35µM*; gsp agonist: -20%

3 structures from above, sorted by formula weight, smallest number first:
Results for O=S(=O)(c1ccc(Cl)cc1)c1cc(O)ccc1O ?
gsp antag: -5%; TRPV1 potentiator: 18; D2 potentiator: 14; Menin MLL FP FL: -2.3; ClpP mod: -0.8%; Sfp PPTase inh: -17%; gsp agonist: -22%

How did C=C[C@@]1(C)CCC(/C(C)=C/C=C/C(C)(C)O)C[C@@H]1C(=C)C (stereo not given in full) do in these assays?
gsp antag: 2%; D2 potentiator: 17; ClpP mod: 1.3%

How did C=CCN(CC=C)S(=O)(=O)c1ccc2nc(NC(=O)C3CCCO3)sc2c1 (stereo not given) do in these assays?
gsp antag: 1%; TRPV1 potentiator: -2; D2 potentiator: -12; Menin MLL FP FL: 3.3; ClpP mod: -2.8%; Sfp PPTase inh: 7%; gsp agonist: -1%

Going on with the list.
What do the screens show for `CCOC(=O)Cn1c(=O)cc(C)c2ccccc21`?
gsp antag: 4%; TRPV1 potentiator: -4; D2 potentiator: -7; Menin MLL FP FL: -0.1; ClpP mod: -12%; Sfp PPTase inh: -5%; gsp agonist: 13%

Results for Cc1ccc(OCc2nc(C#N)c(N3CCCCC3)o2)cc1 ?
gsp antag: -23%; TRPV1 potentiator: -15; D2 potentiator: -12; Menin MLL FP FL: 0.4; Sfp PPTase inh: -1%; gsp agonist: 9%[15.4 µM]

Results for CCCCOC(=O)CSc1nnc(-c2ccc(Cl)cc2Cl)o1 ?
gsp antag: -10%; TRPV1 potentiator: -7; D2 potentiator: 25; Menin MLL FP FL: 3.5; ClpP mod: -1.5%; Sfp PPTase inh: -3%; gsp agonist: 28%

Results for COc1ccc(-c2csc(NC(=O)Cc3cc(OC)c(OC)c(OC)c3)n2)cc1OC ?
gsp antag: -26%; TRPV1 potentiator: 23; D2 potentiator: 3; Menin MLL FP FL: 6.2; Sfp PPTase inh: -24%; gsp agonist: 17%[15.4 µM]

Results for CS(=O)(=O)c1nc(S(=O)(=O)c2ccc(Cl)cc2)c(N2CCN(CCO)CC2)s1 ?
gsp antag: 3%; TRPV1 potentiator: 14; D2 potentiator: -13; ClpP mod: -0.2%; Sfp PPTase inh: 9%; gsp agonist: inconclusive

Results for COc1ccc(-c2nc(C#N)c(NCc3ccco3)o2)cc1 ?
gsp antag: -5%; TRPV1 potentiator: 2; D2 potentiator: -1; Menin MLL FP FL: 0.0; ClpP mod: 4.4%; Sfp PPTase inh: -7%; gsp agonist: -42%[inhibitor]

What do the screens show for `Cc1cccc(NC(=O)CNC(=O)c2cc(C3CC3)nn2-c2ccccc2)c1C`?
gsp antag: -17%; TRPV1 potentiator: 21; D2 potentiator: -30; ClpP mod: 0.9%; gsp agonist: 10%

Results for O=C1c2ccccc2S(=O)(=O)c2cc(C(=O)N(c3ccccn3)c3ccccn3)ccc21 ?
gsp antag: 15%; TRPV1 potentiator: -10; D2 potentiator: inconclusive; Menin MLL FP FL: 6.1; ClpP mod: -6.2%; Sfp PPTase inh: 5%; gsp agonist: inconclusive

Results for COc1cc(O)c(C(CC(=O)N2CCCC2)c2ccc3c(c2)OCO3)c(OC)c1 (stereo not given) ?
gsp antag: 9%; TRPV1 potentiator: -10; D2 potentiator: -5; Menin MLL FP FL: -1.0&1.7; ClpP mod: -7.7%; Sfp PPTase inh: 13%&5%

How did O=C(Nc1nnc(SCc2ccccc2)s1)c1cc2c(s1)CCCC2 do in these assays?
gsp antag: -8%; TRPV1 potentiator: -1; D2 potentiator: -16; Menin MLL FP FL: -1.6; ClpP mod: 27%; Sfp PPTase inh: -3%; gsp agonist: 26%

How did O=C(O)c1cn(Cc2cccnc2)c(=O)c2ccccc12 do in these assays?
TRPV1 potentiator: 4; Menin MLL FP FL: -2.5; Sfp PPTase inh: 12%

What do the screens show for `Cc1cc(Cl)ccc1OCC(=O)NCC(c1cccs1)N1CCOCC1` (stereo not given)?
gsp antag: -23%; TRPV1 potentiator: 1; D2 potentiator: -7; ClpP mod: -1.0%; gsp agonist: -4%

What do the screens show for `CCN(C(=O)CSc1nnc2ccccn12)c1c(N)n(Cc2ccccc2)c(=O)[nH]c1=O`?
gsp antag: 8%; TRPV1 potentiator: 3; D2 potentiator: -7; Menin MLL FP FL: 3.4; ClpP mod: 2.1%; Sfp PPTase inh: -17%; gsp agonist: 16%[15.4 µM]

How did COc1ccc(-c2cc(C(=O)N3CCN(c4cccc(C)c4C)CC3)c3ccccc3n2)cc1OC do in these assays?
gsp antag: -7%; TRPV1 potentiator: -2; D2 potentiator: 5; ClpP mod: 25µM*; gsp agonist: -13%[15.4 µM]

Screening results: PubChem, National Center for Advancing Translational Sciences (NCATS)

Rows are unselected; any-hit rate near 5.1%.
